Compound activity (PubChem)
RE007 growth inh – less growth of the S. pombe RE007 Vpr strain | 0.21% of 360,000 active | Potency, µM (series often up to 92.2 µM), without a hit: top-dose activity change, negative = less growth | S. pombe RE007 Vpr strain, BacTiter-Glo ATP luminescence, 24 h; control for the full effect not named in the record; active = well fitted falling curve with a large enough effect; inconclusive = small, poorly fitted or top-dose-only effect; inactive = no such curve, though single readings can be large or run the other way;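 also: % is scaled to controls: 0 for no effect and ±100 for the full control effect; nearly all actives have a fitted effect of over 50% in size; the assay follows cell death caused by Vpr and the record does not say whether a fall means rescue or toxicity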
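Fission yeast RE007 carrying one integrated HIV-1 vpr copy, seeded at OD 0.01 in PMG+AL medium with 23 nL pinned compound. Grown 24 h at 30 degrees; viability read by BacTiter-Glo luminescence after 5 min.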
SARS PLP yeast – inhibitors of SARS-CoV papain-like protease in yeast. Potency, µM (highest dose often 32.9 µM), without a hit: at the top dose activity, positive = growth rescue. S. cerevisiae expressing SARS-CoV PLpro, growth rescue; control for the full effect not named in the record. 0.19% of 330,000 active; active means well fitted rising curve with a large enough effect; inconclusive means small, poorly fitted or top-dose-only effect; inactive means no such curve, though single readings can be large or run the other way; also: 0% is about no effect; nearly all actives have a fitted effect of over 55% in size; growth read by luminescence after 48 h
Cruzain noTriton – inhibitors of Trypanosoma cruzi cruzain without detergent. 2.3% of 200,000 active. purified cruzain, Z-FR-AMC fluorescence, no detergent. AID 1476. Potency, µM, for inactives: max response, negative = inhibition, usual class: inhibitors;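 also: plate controls were enzyme without inhibitor for no effect and buffer without enzyme for full effect; nearly all actives have a fitted effect of over 40% in size; top concentration of the series not given in the record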
Target sequence (P25779 123-467 limits assumed): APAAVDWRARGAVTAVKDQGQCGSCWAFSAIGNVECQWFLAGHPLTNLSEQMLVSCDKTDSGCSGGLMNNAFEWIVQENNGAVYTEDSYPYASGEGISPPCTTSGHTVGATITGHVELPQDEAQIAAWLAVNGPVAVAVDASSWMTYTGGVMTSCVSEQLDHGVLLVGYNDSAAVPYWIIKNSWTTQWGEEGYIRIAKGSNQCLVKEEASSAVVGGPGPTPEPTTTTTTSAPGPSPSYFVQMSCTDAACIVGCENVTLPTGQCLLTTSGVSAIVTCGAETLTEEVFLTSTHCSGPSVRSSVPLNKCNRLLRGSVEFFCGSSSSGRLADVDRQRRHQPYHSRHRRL
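Detergent-free condition (0.00005% Triton X-100) in acetate buffer pH 5.5 with DTT. 1.5 nM enzyme and compound were pre-mixed 15 min, then 2 uM Z-FR-AMC substrate added; reaction progress from fluorescence change between first and third reads (60 s).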
Marburg entry inh – inhibitors of Marburg virus binding or cell entry; 1.8% of 300,000 active; Potency, µM (top dose mostly 37.8 µM), for the others: at the highest dose activity change, negative = inhibition, most hits filed as inhibitors; Marburg virus pseudotyped entry inhibition, cell reporter; control for the full effect not named in the record; about a third of the inactives were read at about 46 µM; active = well fitted inhibition curve with a large enough effect; inconclusive = small, poorly fitted or top-dose-only effect, or effect the other way; inactive = flat fitted curve, though single readings scatter; tested in HEK293 cells; about a fifth of its hits are not listed in these tables; also: % is scaled to controls: 0 for no effect and ±100 for the full control effect; luciferase read-out
NS1 function inh – inhibitors of influenza NS1 protein function. Potency, µM (series often up to 46.1 µM), without a hit: at the highest dose activity, positive = more growth. S. cerevisiae slowed by influenza A NS1, growth recovery by OD600. 0.4% of 270,000 active; active means well fitted rising curve with a large enough effect; inconclusive means small, poorly fitted or top-dose-only effect; inactive means no such curve, though single readings can be large or run the other way; also: nearly all actives have a fitted effect of over 50% in size
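OD600 was taken as the measure of yeast growth restored by compound in an NS1-expressing S. cerevisiae strain. Cells had been washed out of glucose medium and diluted 1:100 into galactose -URA medium, pH 6.0.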
2A StopGo – lowers the luciferase signal of an FMDV 2A StopGo reporter | human cells with a luciferase reporter of 2A StopGo recoding; control for the full effect not named in the record | Potency, µM (titrated, usually from 57.9 µM), for inactives: top-dose signal change, negative = less light | 1.2% of 410,000 active | AID 1159524; active = well fitted falling curve with a large enough effect; inconclusive = small, poorly fitted or top-dose-only effect; inactive = no such curve, though single readings can be large or run the other way; tested in HEK293T cells; also: % is scaled to controls: 0 for no effect and ±100 for the full control effect; nearly all actives have a fitted effect of over 45% in size; luciferase light after 4 h
LASV entry inh – inhibitors of Lassa virus binding or cell entry | Lassa virus pseudotype entry inhibition, cell reporter; control for the full effect not named in the record | Potency, µM (top dose mostly 37.9 µM), without a hit: at the highest dose activity change, negative = inhibition, usual class: inhibitors | 1.2% of 300,000 active | AID 540256; active means well fitted inhibition curve with a large enough effect; inconclusive means small, poorly fitted or top-dose-only effect, or effect the other way; inactive means flat fitted curve, though single readings scatter; tested in HEK293 cells; also: % is scaled to controls: 0 for no effect and ±100 for the full control effect; nearly all actives have a fitted effect of over 50% in size; luciferase read-out
Cruzain inh Det – inhibitors of Trypanosoma cruzi cruzain with detergent | purified cruzain, Z-FR-AMC fluorescence, 0.01% Triton | P25779 | Potency, µM, for the others: max response, negative = inhibition, hits mostly inhibitors | 0.43% of 200,000 active;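 also: plate controls were neutral wells for no effect and buffer without enzyme for full effect; nearly all actives have a fitted effect of over 40% in size; top concentration of the series not given in the record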
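Purified cruzain (1.5 nM final) was preincubated with compounds for 15 min at room temperature in 100 mM sodium acetate pH 5.5, 5 mM DTT, 0.01% Triton X-100. Reaction started with 2 uM Z-FR-AMC; AMC fluorescence change over 60 s gave activity.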
Active calls of the source: *; ? = inconclusive; . = no result given; [ ] = dose if it differs, or a comment. Unless noted, calls follow the shape of the dose curve; as a rule, active = well fitted curve in the direction sought with a large enough effect; inconclusive = small, poorly fitted or top-dose-only effect, or another doubt; inactive = no such curve, though single readings can be large; an effect the other way counts as inactive or inconclusive. Potency is read from the fitted curve at half-maximal effect. Rows are unselected. Share with any hit: about 4.7%.

SMILES	RE007 growth inh	SARS PLP yeast	Cruzain noTriton	Marburg entry inh	NS1 function inh	2A StopGo	LASV entry inh	Cruzain inh Det
COCCOC(=O)N/C=C\c1nc2ccccc2c(=O)[nH]1	-13%	5%	-9%	?	-3%	9%	?	-5.7%
Cc1ccc(-c2nc(CCNC(=O)C(=O)Nc3ccc(F)cc3F)cs2)cc1	.	.	-5%	.	.	-5%	?	0.9%
COc1ccc2c(c1)CCC1C2=NN(/C(C)=C\C(C)=O)C1c1ccc(F)cc1 (stereo unspecified)	-16%	-2%	.	.	-11%	29%	.	.
CCN(CC)c1ccc(C2C(C(N)=O)=C(C)Nc3ncnn32)cc1 (stereo unspecified)	.	.	13%	.	.	12%	4%[46.1 µM]	-1.5%
O=C1CC(N2CCN(Cc3ccc4c(c3)OCO4)CC2)C(=O)N1Cc1ccc(N2CCCC2=O)cc1 (stereo unspecified)	-13%	-4%	-4%	2%[46.1 µM]	-8%	0%	-2%	3.4%
C=CCn1c(SCc2ccc(Cl)c(Cl)c2)nnc1C(CO)NC(=O)c1ccc(OC)cc1 (stereo unspecified)	-4%	15%	?	-20%	-5%	-24%	-1%	-5.3%
CCS(=O)(=O)N1CCCC(C(=O)NCCCN2CCCC2=O)C1 (stereo unspecified)	5%	-2%	9%	5%	3%	-12%	-8%	2.4%
Cc1cc(C)c2nc(N(CCCN(C)C)C(=O)c3ccc(S(=O)(=O)N4CCCCCC4)cc3)sc2c1	4%	3%	.	?	.	-26%	?	.
COc1ccc(CCN2CC(O)=C(c3nc4ccccc4c(=O)[nH]3)C2=N)cc1OC	-4%	5%	?	-12%	-43%	0%	1%	-3.8%
COC(=O)CCC(=O)Nc1cccc(Br)c1	-1%	-11%	13%	6%	.	-3%	2%	6.5%
Cc1ccc(F)c(CNC(=O)C2CCC(=O)N(CCN3CCOCC3)C2)c1F (stereo unspecified)	-6%	?	.	.	4%	-14%	.	.
CCCC1=NN(C(=O)C(=O)Nc2ccc(Br)cc2)C(O)(C(F)(F)F)C1 (stereo unspecified)	-8%	21%	.	?	.	-27%	2%[46.1 µM]	.
CC1(C)CC(=O)C(Sc2ccccc2[N+](=O)[O-])=C(O)C1	2%	11%	-6%	?	15%	-15%	-5%	-4.0%
O=C(CCSc1ccc(Cl)cc1)N1CCN(S(=O)(=O)c2ccccc2)CC1	4%	1%	.	?	.	?	?	.
Cc1cc(C)n2nc(SCC(=O)N/N=C/c3ccccc3F)nc2n1	-1%	-5%	8%	17%	12%	69%[activator]	?	5.8%
Cc1cnc([N+](=O)[O-])n1CCOC(=O)NC(=O)c1ccc(F)cc1	13%	-1%	.	?	.	-1%	6%	.
CC1=C(C(=O)Nc2ccc(C)cc2)C(c2ccc(Cl)cc2)n2nnnc2N1 (stereo unspecified)	.	.	-2%	.	.	-23%	?	-4.0%
CCOC(=O)/C(C#N)=C1/C=CN(c2ccc(C)cc2)C=N1	1%	11%	-4%	17%	3%	.	32%	1.6%
O=C(COc1ccc2c3c(c(=O)oc2c1)CCC3)Nc1ccc(CCO)cc1	2%	-3%	.	.	-2%	-18%	.	.
Cn1c(=O)[nH]c(=O)c2c1nc(Br)n2CCCc1ccccc1	.	1%	-2%	0%	9%	.	.	3.3%
Cc1ccc(S(=O)(=O)NCCc2cn3ccsc3n2)cc1	.	.	-4%	.	.	0%	12%[46.1 µM]	-0.4%
CCNC(=O)COC(=O)CCNC(=O)c1cccc(C)c1	17%	-3%	.	-6%[46.1 µM]	.	-3%	.	.
CCOC(=O)C(Cc1ccccc1)c1ccnc2ncnn12 (stereo unspecified)	7%	4%	.	-6%[46.1 µM]	-11%	-4%	-23%[46.1 µM]	.
N#Cc1c(/N=C/N2CCCC2)oc(-c2ccccc2)c1-c1ccccc1	-3%	3%	-19%	?	-23%	?	?	-0.2%
CC[C@H](C)[C@@H]1NC(=O)c2cc([N+](=O)[O-])cc(F)c2NCCCC[C@@H](C(N)=O)NC(=O)[C@H](CC(N)=O)NC1=O	6%	-3%	10%	15%	-7%	-23%	-10%	-9.2%

Taken from above.
Cc1ccc(F)c(CNC(=O)C2CCC(=O)N(CCN3CCOCC3)C2)c1F (stereo unspecified) in RE007 growth inh is listed with -6%
COC(=O)CCC(=O)Nc1cccc(Br)c1 in LASV entry inh is listed with 2%

Additional entries
SMILES	RE007 growth inh	SARS PLP yeast	Cruzain noTriton	Marburg entry inh	NS1 function inh	2A StopGo	LASV entry inh	Cruzain inh Det
CCCC(=O)Nc1nc2ccc(NC(=O)c3c(F)c(F)c(OC)c(F)c3F)cc2s1	-1%	0%	.	.	4%	-24%	.	.
CCCN(CC1CC1)S(=O)(=O)c1ccc(-n2cnnn2)c(OC)c1	-6%	9%	-5%	14%	-1%	36%[activator]	0%	1.4%
CCOC(=O)C1CN(S(=O)(=O)c2ccc(C)cc2)c2ccccc2O1 (stereo unspecified)	?	-7%	.	?	0%	-8%	-2%[46.1 µM]	.
CCOC(=O)CCCCC(=O)c1[nH]c(=O)[nH]c1Cn1ccnc1	21%	2%	16%	7%	?	-17%	8%	2.4%
O=C(CC1C(=O)NCCN1CC1CCCCC1)NCCc1ccc(F)cc1 (stereo unspecified)	-10%	-1%	.	?	-2%	5%	2%[46.1 µM]	.
COc1cccc(OCC(O)CN2CCN(CCN3C(=O)c4cccc5cccc(c45)C3=O)CC2)c1 (stereo unspecified)	-18%	0%	.	?	.	-25%	?	.
Cc1nc2ccccc2n1CCCOc1ccccc1	-26%	17%	4%	?	10%	-2%	?	-0.7%
O=C(Cn1nc(Cc2cccnc2)c2ccccc2c1=O)NCC1CCCO1 (stereo unspecified)	0%	?	9%	.	4%	-6%	.	0.9%
CCOP(=O)(OCC)C(Nc1cccc(C(F)(F)F)c1)c1ccc(F)cc1 (stereo unspecified)	2%	3%	?	?	-24%	-19%	-8%	-7.2%
CCn1c(SCC(=O)O)nnc1C1CCCCC1	1%	-9%	-8%	3%	-3%	.	-2%	0.8%
Cc1ccc2[nH]cc(S(=O)(=O)c3ccc(F)cc3)c(=O)c2c1	3%	0%	.	2%[46.1 µM]	-1%	-24%	20%	.
Cc1cccc(N(C(=O)Cn2nnc3ccccc32)C(C(=O)NC(C)(C)C)c2ccsc2)c1C (stereo unspecified)	4%	?	6%	-23%	-2%	.	0%	-4.0%
COC(=O)c1ccc(C(=O)OC)c(NC(=O)C(C)(C)C)c1	-7%	0%	.	9%[46.1 µM]	-2%	-16%	6%	.
Cc1ccc2c(c1)cc(CN(Cc1ccc3c(c1)OCO3)C(=O)c1cnccn1)c1nnnn12	18%	3%	?	9%	1%	-12%	6%	-0.6%
Cc1cc(NC(=O)/C=C/c2ccc(Br)cc2)no1	-5%	2%	?	7%	14%	12%	-5%	-0.6%
Cc1ccc(NC(=O)CSc2nc(C)c(C)c(C)n2)c([N+](=O)[O-])c1	0%	-3%	-24%	?	8%	-26%	1%	-5.8%
CCc1ccc(S(=O)(=O)c2nnn(-c3cccc(C)c3)c2N)cc1	.	.	-1%	9%[46.1 µM]	.	-20%	-4%[46.1 µM]	-8.0%
COc1ccc(N2CCN(C(=O)c3cccc(N4C(=O)C5C6C=CC(C6)C5C4=O)c3)CC2)cc1 (stereo unspecified)	3%	11%	.	.	12%	-13%	.	.
O=C(CSc1nc(=O)n2cc(Cl)ccc2n1)Nc1cccc2ccccc12	5%	0%	.	?	.	16%	10%	.
C=C(C)c1cccc(C(C)(C)NC(=O)NC2CCN(Cc3ccccc3)CC2)c1	1%	0%	.	.	1%	0%	.	.
O=C(N/N=C\c1cc(Br)ccc1O)c1ccc(S(=O)(=O)N2CCCCC2)cc1	7%	?	-9%	?	28%	-2%	?	-1.3%
Cc1nc2ccccc2c(=O)n1NC(=O)Cc1ccc([N+](=O)[O-])cc1	-26%	0%	.	19%[46.1 µM]	.	2%	3%	.
COc1ccc(N2C(=O)c3ccccc3NC2c2cccnc2)cc1 (stereo unspecified)	-10%	-1%	.	?	.	-9%	?	.
COc1ccc(NC(=O)CC2C(=O)N(c3cccc(OC)c3)C(=O)N2CCc2cccs2)cc1 (stereo unspecified)	.	.	8%	1%[46.1 µM]	.	1%	?	-4.8%
CC(C)(C)C1CCC2(CC1)C(C#N)=C(SCC(=O)Nc1ccccc1)NC(=O)C2C#N (stereo unspecified)	17%	-2%	-18%	?	-98%	?	?	-6.0%

Later entries.
SMILES	RE007 growth inh	SARS PLP yeast	Cruzain noTriton	Marburg entry inh	NS1 function inh	2A StopGo	LASV entry inh	Cruzain inh Det
CN(CC(=O)Nc1ccc(F)cc1)C(=O)CSc1nncs1	5%	-7%	.	24%	6%	2%	1%	.
N/C(=N\OC(=O)c1ccc(OCC(F)(F)F)nc1)c1ccc(Cl)cc1	-3%	1%	.	-5%[46.1 µM]	-4%	23%	24%	.
O=C(COC(=O)CSc1ccc(F)cc1)NNC(=O)c1ccc([N+](=O)[O-])cc1	-28%	2%	.	2%	.	-15%	-1%[46.1 µM]	.
COc1ccccc1C(=O)Nc1ccc(C(=O)N2CCCCC2)cc1	-14%	5%	.	-1%	-5%	24%	-7%	.
Fc1cccc(-c2cc3nc4c(c(NCc5ccco5)n3n2)CCCC4)c1	7%	-39%	-1%	?	-95%	.	13%	-8.4%
CCNC(=S)N(Cc1ccco1)Cc1cc2cc(OCC)ccc2[nH]c1=O	6%	0%	.	.	18%	-25%	.	.
O=c1oc2ccccc2c(O)c1CN1CCCCC1	7%[3.69 µM]	-4%	-6%	?	-54%	2%	8%	-5.2%
Cn1c(C(=O)NCC2CCCO2)cc2c(=O)n(C)c3ccccc3c21 (stereo unspecified)	1%	-2%	-10%	0%	-5%	2%	.	3.9%
Nc1nc(C23CC4CC(CC(Cl)(C4)C2)C3)cs1	-4%	-5%	.	4%[46.1 µM]	11%	?	20%[46.1 µM]	.
Cc1ccc(NC(=O)c2ccc(=O)n(Cc3ccccc3C)c2)c(C)c1	.	.	-7%	.	.	8%	12%[46.1 µM]	-3.0%
Cc1ccc(NC(=O)C2CCN(S(=O)(=O)c3ccc4c(c3)oc(=O)n4C)CC2)cc1	-5%	3%	.	.	-1%	3%	.	.
